Source: PubChem
miR-21 reporter – raises the signal of a miR-21 reporter | HeLa miR-21 FLuc reporter, luciferase, 48 h | Potency, µM (doses to about 38.3 µM), without a hit: at the top dose reporter change, positive = more light | 340,000 tested, under 10 active; active = well fitted rising curve with a large enough effect; inconclusive = small, poorly fitted or top-dose-only effect; inactive = no such curve, though single readings can be large or run the other way;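 further: % of control where 0% means no effect; miR-21 action dims this reporter so a rising signal means less miR-21 action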
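Using DMEM plus 10% FBS, HeLa miR-21-FLuc cells are incubated with test compounds (final up to about 40uM) for 48 hours; firefly luciferase signal is then imaged following reagent-mediated lysis.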
Rango dissoc inh – inhibition of RanGTP-driven Rango-importin beta dissociation | Potency, µM (highest dose often 46.1 µM), for the others: top-dose activity change, negative = inhibition | AID 540253 | Biochemical FRET Rango-importin beta, RanGTP-induced dissociation | 0.071% of 340,000 active | O95149+P62826; active means falling FRET ratio curve, often poorly fitted, with flat reads before Ran was added; inconclusive means other falling curves, or compound fluorescence or quenching; inactive means flat or rising ratio curve;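 further: potency means the concentration at half of the fitted maximal effect; % of control where 0% means no effect; nearly all actives have a fitted effect of over 45% in size; -100% = wells without RanGTP and RCC1; the record marks most hits as doubtful in a second field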
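Rango (0.1 uM)–importin beta (0.25 uM) complex; RanGTP-RCC1 trigger; 45 min RT; CFP/YFP FRET read.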
GLA inh pH 4.5 – alpha-galactosidase A (human) inhibition, pH 4.5; activity change, negative = inhibition, % at 105 µM; 230,000 tested, under 10 active; P06280; purified enzyme, 4-MU-alpha-Gal fluorescence, pH 4.5; inconclusive = small, poorly fitted or top-dose-only inhibition, or a rising curve; inactive = flat fitted curve, though single readings scatter; no compound was filed as active;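 further: 0% = full activity with enzyme and -100% = basal without enzyme; dose as in the result columns while the protocol names 77 µM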
Rango-impB inh – inhibitors of Rango-importin beta complex formation. Q14974. Rango CFP/YFP FRET sensor + importin beta, 45 min. Potency, µM (doses to about 92.2 µM), without a hit: at the top dose inhibition of complex formation. 0.031% of 340,000 active. AID 540263; active = rising FRET ratio curve, often small or poorly fitted; inconclusive = mostly compound fluorescence or quenching in the first reads; inactive = flat curves in all reads;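 further: potency means the concentration at half of the fitted maximal effect; 0% = DMSO wells and 100% = buffer wells lacking importin beta; nearly all actives have a fitted effect of over 15% in size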
Target sequence (Q14974 whole entry, looked up): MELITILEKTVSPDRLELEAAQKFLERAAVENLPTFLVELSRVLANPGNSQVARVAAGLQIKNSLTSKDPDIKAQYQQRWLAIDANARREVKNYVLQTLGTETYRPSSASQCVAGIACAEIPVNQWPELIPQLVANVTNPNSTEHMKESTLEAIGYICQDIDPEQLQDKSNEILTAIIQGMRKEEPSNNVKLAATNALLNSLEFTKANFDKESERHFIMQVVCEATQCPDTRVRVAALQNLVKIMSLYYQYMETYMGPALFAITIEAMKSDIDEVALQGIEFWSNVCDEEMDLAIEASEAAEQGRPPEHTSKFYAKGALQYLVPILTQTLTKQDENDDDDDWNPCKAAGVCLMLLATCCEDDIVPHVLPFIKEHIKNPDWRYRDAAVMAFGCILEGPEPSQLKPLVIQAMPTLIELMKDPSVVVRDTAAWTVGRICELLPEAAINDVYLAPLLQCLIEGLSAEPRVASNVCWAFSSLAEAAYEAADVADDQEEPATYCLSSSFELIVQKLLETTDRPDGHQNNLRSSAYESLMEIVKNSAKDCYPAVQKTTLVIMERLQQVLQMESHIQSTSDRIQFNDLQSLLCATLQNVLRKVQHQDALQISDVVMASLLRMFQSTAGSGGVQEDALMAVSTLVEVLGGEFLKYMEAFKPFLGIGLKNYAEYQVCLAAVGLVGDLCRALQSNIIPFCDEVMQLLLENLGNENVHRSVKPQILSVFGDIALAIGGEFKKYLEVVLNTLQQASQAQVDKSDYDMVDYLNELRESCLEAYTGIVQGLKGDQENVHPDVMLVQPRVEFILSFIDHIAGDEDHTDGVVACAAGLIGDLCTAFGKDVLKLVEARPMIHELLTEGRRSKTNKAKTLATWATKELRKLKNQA
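FRET biosensor Rango (snurportin 1 IBB between N-terminal EYFP and C-terminal Cerulean), 50 nM in PBS/1 mM DTT/0.02% Tween-20/0.1% BSA, preincubated 5 min RT with compound; 0.125 microM importin beta added, 45 min RT, CFP/YFP FRET ratio read.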
Active calls of the source: *; ? = inconclusive; · = no result given; & = joins results of further samples; [ ] = another dose, or the depositor's remark. A portion of the library; rates above refer to the full screens.

Rango dissoc inh,miR-21 reporter,Rango-impB inh,GLA inh pH 4.5,Molecule
2%,·,?,·,COc1ccc(Nc2nc(N3CCCC3)nc(N3CCOCC3)n2)cc1
10%,-6%,2.0%,·,O=C1[C@H]2[C@@H](c3ccc(F)cc3)N3C(=O)N(c4ccc(Br)cc4)C(=O)[C@@]3(Cc3ccccc3)[C@H]2C(=O)N1C1CCCCC1
5%,·,1.5%,·,CCOc1ccc(NS(=O)(=O)c2cc(C(=O)N3CCC3)ccc2Cl)cc1
-1%,·,0.1%,·,Cc1cccc(N2CCN(C(=O)CSc3nnnn3C3CC3)CC2)c1C
1%,-1%,?,·,CCOc1cccc(/C=N/N=C/c2cccc(OCC)c2O)c1O
·,-5%,·,0,CCOC(=O)C1CCN(C(=O)c2cn(-c3ccccc3)nc2-c2cccnc2)CC1
2%,-1%,0.8%,3,Cc1cc(Cl)ccc1OCCCC(=O)NO
-6%,-1%,-2.3%,-1[21.1 µM],O=C1c2ccccc2-c2n[nH]c(=O)c3ccc(N4CCCCC4)c1c23
?,-6%,?,-10,N#C/C(=C/c1ccncc1)c1nc2ccccc2c(=O)[nH]1
17%,7%,-1.6%,-29,COc1ccc(F)c(CN2CCC(CO)(Cc3cccc(C(F)(F)F)c3)CC2)c1
-11%,20%,0.7%,-3,CCn1c(SCC(=O)N/N=C/c2c[nH]c3ccccc23)nnc1-c1ccc(Cl)cc1
7%,0%,-0.7%,3,COc1ccc(N2CC(C(=O)Nc3cccc(C)n3)CC2=O)cc1 (stereo not given)
-4%,-1%,1.4%,5,Cc1ccccc1SCC(=O)N1CCN(c2ccc(C(F)(F)F)cn2)CC1
-5%,·,0.1%,·,CC(C)Cc1nnc(NC(=O)C2CCN(C(=O)c3ccc(Cl)cc3)CC2)s1
-26%,-30%,?,·,C/C(=N\NC(=O)c1cc2ccccc2cc1O)c1ccccn1
?,2%,3.1%,·,CCC(Sc1nc(C)cc(C)n1)C(=O)Nc1nccs1 (stereo not given)
-2%,·,-1.3%,·,COc1ccc(NC(=O)CN2C(=O)NC(C)(c3ccc4c(c3)OCCO4)C2=O)cc1S(N)(=O)=O (stereo not given)
1%,10%,2.9%,·,Cc1cc(Br)c(S(=O)(=O)NCc2ccncc2)cc1C
2%,2%,-1.0%,·,Cc1ccc(NC(=O)Cn2c(=O)oc3ccccc32)c(C)c1
-1%,-18%,-0.6%,·,Fc1ccccc1/C=N/Nc1ccc(Cl)nn1
-17%,·,4.2%,·,Cc1noc(C)c1COc1ccccc1C(=O)NC(C)c1ccc(Cl)cc1 (stereo not given)
8%,-2%,-4.9%,1,Cc1cc(NS(=O)(=O)c2ccc(NC(=O)C(C)Oc3ccc(Cl)cc3)cc2)no1 (stereo not given)
5%,0%,0.5%,1,CCOc1ccc(CN(C)CC(=O)Nc2cccc(C)c2)cc1OC
-15%,1%,8.0%,·,COCC(=O)N1CCC(Oc2ccc(C(=O)N3CCN(C)C[C@@H]3C(C)C)cc2)CC1
10%,-4%,-0.9%,1,CCN(CC)CCNC(=O)Cn1nc(Cc2ccccc2)c2ccccc2c1=O
?,-12%,4.4%,5&-2,COc1cc(-c2cc(=O)c3c(O)c(OC)c(OC)c(OC)c3o2)cc(OC)c1OC
5%,1%,-0.4%,-3,CN(Cc1ccccc1)C(=O)CCNS(=O)(=O)c1ccc2c(c1)oc(=O)n2C
-4%,-1%,5.2%,·,CC(Oc1ccc2c3c(c(=O)oc2c1)CCCC3)C(=O)NCc1cccnc1 (stereo not given)
1%,·,-0.7%,·,COCCN(C(=O)c1ccc(C#N)cc1)c1c(N)n(Cc2ccccc2)c(=O)[nH]c1=O
34%,·,-0.5%,·,Cn1c(N)c(C(=O)COC(=O)Cc2ccc(Cl)c(Cl)c2)c(=O)n(C)c1=O
-4%,-7%,-1.8%,-1,Cc1c(NC2=NC3(CCCCC3)Cc3ccccc32)c(=O)n(C)n1-c1ccccc1
-14%,13%,-6.4%,3,CCc1ccc(-c2nc(CSCC(=O)N3CCN(c4ncccn4)CC3)c(C)o2)cc1
8%,-4%,-0.9%,0,C=CCC(NCc1ccco1)c1ccc(OC)cc1 (stereo not given)
15%,-4%,-2.4%,7,CCCCNc1nnc(CCn2nc(C)c(Br)c2C)s1
9%,-14%,-0.7%,2,Cc1csc(NC(=O)CCn2c(=O)sc3ccccc32)n1
0%,-7%,-1.0%,-1,C=CCn1c(-c2cccn(Cc3ccc(Cl)cc3)c2=O)n[nH]c1=S
2%,0%,0.1%,·,Nc1ccc(S(=O)(=O)NC(Cc2ccccc2)C(=O)O)cc1 (stereo not given)
15%,-8%,2.4%,4,O=C(NCc1ccncc1)Nc1ccccc1F
-5%,-3%,-5.6%,-2,O=C(NCCCCNC(=O)c1ccco1)c1ccco1
5%,·,2.0%,·,Cc1ccc(C(=O)CN2C(=O)NC3(CCCCC3C)C2=O)s1 (stereo not given)

Overlap with the part before: 2 entries; new compounds follow.
Rango dissoc inh,miR-21 reporter,Rango-impB inh,GLA inh pH 4.5,Molecule
-5%,-3%,-5.6%,-2,O=C(NCCCCNC(=O)c1ccco1)c1ccco1
5%,·,2.0%,·,Cc1ccc(C(=O)CN2C(=O)NC3(CCCCC3C)C2=O)s1 (stereo not given)
1%,-7%,-0.4%,-8,O=C(CCS(=O)(=O)c1cccc2nonc12)N1CCCc2ccccc21
-8%,-11%,2.3%,4,CCn1cc(C(=O)NCc2cccnc2)c2cc(OC)c(OC)cc2c1=O
-25%,-10%,2.1%,4,CC1(C)CC(c2nc(-c3ccc(Br)cc3)cs2)CCS1 (stereo not given)
-16%,-27%,?,-2,NC(=O)c1c(NC(=O)C2CCCO2)sc2c1CCC2 (stereo not given)
1%,-46%,?,-17[21.1 µM],COc1ccc(NC(=O)CSc2nc3ccsc3c(=O)n2Cc2ccccn2)c(OC)c1
1%,1%,1.2%,3,O=C(O)CC(Cc1ccccc1)c1ccc2c(c1)OCO2 (stereo not given)
·,-2%,·,-1,CC(C)(C)NC(=O)CN(Cc1ccc2c(c1)OCO2)C(=O)CNC(=O)c1cccs1
4%,-11%,4.0%,0,Cc1cccc(-c2c3c(=O)n(C)c(=O)n(C)c3cn2C2CCCCC2)c1
3%,3%,-2.4%,-4,CSc1nc(C)c(Cc2c(F)cccc2Cl)c(=O)[nH]1
-6%,-9%,-5.1%,-6,COc1ccccc1Nc1nnc(SCC(=O)N2CC(=O)Nc3ccccc32)s1
14%,0%,-2.2%,0,CN(O)C(=O)Nc1ccc([N+](=O)[O-])cc1
8%,-13%,3.0%,-1,CCN(CC)c1ncnc2c1cnn2C
5%,-43%,0.7%,·,O=C(Nc1nccs1)c1ccc(COc2ccccc2)o1
1%,-4%,13%,-5,CC(C(=O)NCCCN1CCOCC1)n1cccc1C(=O)c1ccccc1 (stereo not given)
3%,-56%,-1.4%,·,O=C1CCCN1CCC(=O)N1CCCC(CO)(Cc2ccccc2)C1 (stereo not given)
1%,-7%,2.1%,3,NNC(=S)NCCc1ccccc1
1%,-6%,0.2%,-19,O=S(=O)(c1cccs1)N1CN(Cc2ccccc2)c2nc3ccccc3nc21
19%,-1%,-2.8%,1,CCCOc1ccc(/C(O)=C2/C(=O)C(=O)N(CCCOC)C2c2cccnc2)cc1 (stereo not given)
-8%,-43%,-0.3%,8,COc1ccc(C(=O)Nc2cccnc2)cc1
4%,0%,-0.3%,-1,CC(=O)c1cc(-c2ccccc2)[nH]c1N1CCOCC1
4%,·,3.3%,·,CCOc1cc(C(=O)N2CCC(CC3CC(c4ccccc4)=NO3)(C(=O)NCc3ccc(OC)cc3)CC2)cc(OCC)c1OCC (stereo not given)
-2%,2%,-1.9%,13,Oc1ccc2ccccc2c1CN1CCCC1
-4%,-6%,2.3%,·,Nc1nc(SCC(=O)Nc2cc(C(F)(F)F)ccc2Cl)[nH]c(=O)c1NC(=O)c1ccco1
-11%,1%,-0.8%,·,CN1CCCN(C(=O)c2ccccc2Cl)CC1
-19%,·,?,·,Cc1cccc(NC(=O)CNC(=O)COc2cccnc2[N+](=O)[O-])c1C
-5%,-11%,-1.6%,-2,O=C1C2CCCN2C(c2cccc(F)c2)N1c1cccc(Cl)c1 (stereo not given)
-3%,·,1.0%,·,COCCN(CC(=O)Nc1cccc(C)c1C)C(=O)c1ccc(-n2cccn2)cc1
-16%,2%,-0.7%,7,O=C(CSc1nc(O)c(Cc2ccccc2)c(=O)[nH]1)N1CCOCC1
6%,0%,-3.4%,·,Cc1ccc(S(=O)(=O)CCC(=O)OCC(=O)NCC(=O)Nc2cccc(C)c2C)cc1
8%,·,3.3%,4,NS(=O)(=O)c1cc(C(=O)O)cc(N2CCCC2)c1Oc1ccccc1
-17%,25%,-0.1%,·,O=C(NCc1ccc(F)cc1)c1ccc(CS(=O)Cc2ccccc2Cl)o1 (stereo not given)
12%,-6%,-3.2%,-5,Cc1ccc(SCCNS(C)(=O)=O)cc1
-13%,-5%,1.1%,0,Cc1nc2sc3c(c2c(=O)o1)CCCC3
0%,0%,-5.7%,7,O=C(COC(=O)c1ccc2c(=O)n3c(nc2c1)CCC3)Nc1ccccc1F
1%,-21%,-0.7%,·,NS(=O)(=O)c1ccc(CNC(=O)c2cc(-c3cccnc3)nc3ccc(Cl)cc23)cc1
-12%,-4%,3.2%,0,CCOC(=O)c1c(C)c(-c2ccccc2)n(CC(=O)NCCCN(CC)CC)c1C
0%,-2%,-1.7%,7&-20,COc1cc(NS(=O)(=O)c2ccc(N)cc2)nc(OC)n1
-2%,-2%,-0.7%,-8,O=C1OCc2ccc(NS(=O)(=O)c3ccc(C(F)(F)F)cc3)cc21
-11%,?,-0.1%,·,CN(C)CCCN(C(=O)CCS(=O)(=O)c1ccccc1)c1nc2cc3c(cc2s1)OCO3
?,-38%,?,4,CC(=Nc1cccc(O)c1)c1sc2ccccc2c1O
3%,-4%,-3.6%,-1,Cc1cc(C)cc(Nc2ncc3c(n2)CCCC3=O)c1
-12%,-41%,0.2%,5,CSc1nsc(SCC(=O)Nc2nc3ccccc3s2)n1
-24%,-5%,-1.6%,-13,O=C(O)CC1(CC(=O)Nc2cccc(C(F)(F)F)c2)CCCC1
-2%,-16%,7.4%,-3,COc1ccccc1C(=O)N/N=C(\C)CC(=O)Nc1ccc(Cl)cn1
·,12%,·,9,O=C1CC(c2ccccc2Cl)c2c(sc3c(=O)[nH]c(CCl)nc23)N1 (stereo not given)
9%,1%,-2.1%,4,Cn1cnc(S(=O)(=O)N2CCc3ccccc32)c1
16%,-18%,4.2%,9,CCOC(=O)CSc1ccc2ccccc2n1
-7%,-10%,2.3%,-7,CCOC(=O)c1ccc(-c2cccc(C(F)(F)F)c2)nc1C
-20%,-3%,1.5%,·,COc1cc(/C=C/C(=O)N2CCCC2)cc(OC)c1OC
-4%,·,-0.9%,·,CC(=O)c1cccc(N2C(=O)CC(N3CCN(S(=O)(=O)c4ccc(Cl)cc4)CC3)C2=O)c1 (stereo not given)
-3%,-5%,-1.7%,-1,COc1ccc(C(=O)NC2=C(C#N)CCC2)cc1OC
8%,1%,8.6%,3,O=C(c1ccco1)N(CC1CCCO1)c1nc(-c2ccccc2)cs1 (stereo not given)
2%,-6%,-0.6%,·,CN(Cc1ccco1)C(=O)c1cc2c(s1)-c1ccc(Cl)cc1S(=O)(=O)C2

Profiles as entered above. Order of screens: Rango dissoc inh	miR-21 reporter	Rango-impB inh	GLA inh pH 4.5
Shown for CN(Cc1ccco1)C(=O)c1cc2c(s1)-c1ccc(Cl)cc1S(=O)(=O)C2 : 2%	-6%	-0.6%	·
Shown for O=C(c1ccco1)N(CC1CCCO1)c1nc(-c2ccccc2)cs1 (stereo not given) : 8%	1%	8.6%	3
Shown for COc1ccc(C(=O)NC2=C(C#N)CCC2)cc1OC : -3%	-5%	-1.7%	-1
